# VCAM-1 up – enhancers of VCAM-1 display on endothelial cells, cell-based, plate reader, pooled HUVEC, TNFa stimulus (AID 455). 10,000 compounds, 0.2% hits. HUVEC TNFa-induced VCAM-1 immunofluorescence, plate reader; numbers were filed only for top-ranked candidate wells. augmentation, % at 5 µM;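 active = a compound raising TNF-alpha-driven VCAM-1 surface staining, with its hit status upheld on visual or statistical review; inactive = the rest, including hits rejected on review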;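 note: 0% = TNFa with vehicle and 100% = strongest image-checked hit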
# Proteasome disasm – blocks ATP-dependent breakdown of the yeast 26S proteasome. 24,000 compounds, 0.2% hits. inhibition of disassembly, % (no concentration beside the values). anti-FLAG beads, GFP-proteasome disassembly, flow cytometry. AID 751;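 active = above 40%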;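 note: plate controls were ATP control with full disassembly for no effect and ATP-gamma-S intact proteasomes for full effect; higher percent means more bead fluorescence retained so stronger block of disassembly; stock transfer was 100 nL into about 10 µL; wells with too few beads may also be inconclusive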
# Active calls of the source: *; i = inactive; . = not tested or not shown. Not all compounds are listed; rates above refer to the full screens.
SMILES,VCAM-1 up,Proteasome disasm
COc1cccc(C2CC(c3ccc(C)cc3)Nc3nc(N)nn32)c1 (configuration not stated),i,-0.7
C(=N\c1c(-c2ccccc2)nc2n1CCS2)/c1ccccc1,i,-1.7
O=C(Nc1cccc(C(F)(F)F)c1)c1cc(-c2cccs2)on1,.,-3.7
CCOC(=O)C(C)Sc1nnc(Cc2cc(=O)[nH]c(=O)[nH]2)n1-c1ccc(Cl)cc1 (configuration not stated),i,-0.3
COC(=O)CSc1nc(C)c(C(C)=O)cc1C#N,i,0.3
c1ccc(C2(Cn3ccc4ccccc43)OCCO2)cc1,i,0.7
Cc1cc(C)n2nc(CC(=O)NC3CCCC(C)C3C)nc2n1 (configuration not stated),.,-0.2
Cc1cc(C(=O)NCCCN2CCOCC2)n(-c2ccccc2)n1,i,0.3
CCC(=O)Nc1cccc(-c2nc3ccccc3c(=O)o2)c1,.,-1.5
O=C1CCN(C(=O)c2ccccc2)C2CCCCC12 (configuration not stated),i,-0.7
CCOC(=O)N1CCN(c2nc(-c3cccc(OC)c3)cc(C(F)(F)F)n2)CC1,.,0.3
Cc1ccc(CCNC(=O)C2CCN(S(=O)(=O)c3ccc4c(c3)CCC(=O)N4)CC2)cc1,i,3.0
CN1C(=O)c2ccccc2C(C(=O)NCC2CCCO2)C1c1c[nH]c2ccccc12 (configuration not stated),.,-1.1
COc1cc(C(=O)OCc2cc3ccccc3[nH]c2=O)cc(OC)c1OC,i,0.3
CCc1cccc(Nc2cc(C)nc3nc(C)nn23)c1,.,-0.8
CCN(CC(=O)Nc1c(C(=O)OC)[nH]c2ccccc12)c1ccc2c(c1)OCO2,i,-0.3
CCN(CC)S(=O)(=O)c1ccc2oc(C(=O)NCC3COc4ccccc4O3)c(C)c2c1 (configuration not stated),.,5.6
O=C(c1noc2c1CCc1ccccc1-2)N1CCc2ccccc2C1,.,-1.9
COC(=O)C1CCN(c2cc(=O)n(C3CCCCC3)c(=O)[nH]2)CC1,.,-1.3
COc1ccc(-n2c(=O)[nH]cc(C(=O)Nc3ccc4c(c3)OCCO4)c2=O)cc1,.,-1.7

# 2 entries from above, set out differently.
SMILES: COc1cc(C(=O)OCc2cc3ccccc3[nH]c2=O)cc(OC)c1OC
  VCAM-1 up: i
  Proteasome disasm: 0.3
SMILES: CCc1cccc(Nc2cc(C)nc3nc(C)nn23)c1
  VCAM-1 up: .
  Proteasome disasm: -0.8

# Continued:
SMILES,VCAM-1 up,Proteasome disasm
CCC(C)(C)NC(=O)C(OC(=O)c1ccco1)c1ccccc1OC (configuration not stated),i,-0.7
O=C(CNC(=O)Cn1cnc2sc3c(c2c1=O)CCCC3)NCc1ccccn1,.,0.0
CCOC(=O)N1CCN(CC(O)COc2c(OC)cccc2OC)CC1 (configuration not stated),.,-2.2
CCn1c(SC)nc2c(c1=O)SC(C)C2 (configuration not stated),i,0.1
O=C(CSc1n[nH]c(=O)[nH]c1=O)c1ccccc1,i,0.3
CCCCN(CC)CCCNC(=O)c1cc2cc3ccc(OC)cc3nc2o1,.,0.2
COc1cc(NC(=O)C2CC(c3cccc(OC)c3OC)=NO2)cc(OC)c1OC (configuration not stated),i,-0.5
CCCCOc1ccccc1C1C(C(N)=O)=C(C)Nc2nnnn21 (configuration not stated),i,0.4
Cc1nnc2n(-c3ccccc3)c(=O)c3c4c(sc3n12)CCCC4,i,-1.6
Cc1ccc(NC(=O)Cn2nnc(C(=O)NCc3cccs3)c2N)cc1,.,-0.1
CCc1ccc(CNCc2cccnc2)cc1,i,-1.9
CCOc1ccccc1N(C(=O)Cn1nnnc1-c1ccc(C)o1)C(CC)C(=O)NC(C)(C)C (configuration not stated),i,-1.0
CC(C)N(CCc1ccncc1)C(=O)Nc1ccc(Cl)c(Cl)c1,.,-1.5
COCC(C)NC(=O)CCS(=O)(=O)c1nc(-c2ccc(OC)cc2)cc(C(F)(F)F)n1 (configuration not stated),i,0.0
NC(=O)c1cccc(S(=O)(=O)N2CCCCC2)c1,i,-0.8
Cc1nn(C(C)C(=O)N2CCc3ccccc3C2)c(=O)c2cc3occc3n12 (configuration not stated),.,-1.3
COc1cc(C(=O)N2CCN(c3cccc(C)c3C)CC2)cc(OC)c1OC,.,0.9
CN(C(=O)c1ccc2c(c1)OCO2)C1(C(=O)NC2CCCCC2)CCCCC1,.,-0.4
CCOC(=O)N1CCC(NC(=O)CSc2cc(=O)n(CC)c3ccccc23)CC1,.,-0.6
CC(=O)CC(=O)Nc1ccccc1NC(C)=O,i,-2.0

# Profiles, quoted from the list.
# CCN(CC)S(=O)(=O)c1ccc2oc(C(=O)NCC3COc4ccccc4O3)c(C)c2c1 (configuration not stated) is listed with VCAM-1 up = .; Proteasome disasm = 5.6
# O=C(c1noc2c1CCc1ccccc1-2)N1CCc2ccccc2C1 is listed with VCAM-1 up = .; Proteasome disasm = -1.9
# NC(=O)c1cccc(S(=O)(=O)N2CCCCC2)c1 is listed with VCAM-1 up = i; Proteasome disasm = -0.8

# More results follow.
SMILES,VCAM-1 up,Proteasome disasm
NS(=O)(=O)c1ccc(CCNc2cc(=O)n(Cc3ccc(F)cc3)c(=O)[nH]2)cc1,.,-1.0
CC(C)N1CCC2(CC1)N=C(c1ccc3c(c1)OCO3)CC(c1cc(Cl)ccc1O)N2 (configuration not stated),.,1.0
CC1CCCCC1NC(=O)Cn1nc(-c2ccccc2)ccc1=O (configuration not stated),.,0.5
CC(=O)Nc1ccc(Oc2ccc3nc(C)[nH]c3c2)cc1,i,-4.0
Fc1ccc(-c2cc(C(F)(F)F)nc(NCC3CCCO3)n2)cc1 (configuration not stated),.,0.5
Cc1ccnc(NS(=O)(=O)c2ccc(N=CC3=C(O)CC(C)(C)CC3=O)cc2)n1,i,-0.4
O=C1CC(c2ccc(S(=O)(=O)NC3CC3)cc2)CN1 (configuration not stated),.,-1.0
COc1ccc(C)cc1NC(=O)c1nnn(Cc2cc(C)ccc2C)c1N,.,-1.8
CN(C)C(=O)CSc1nnc([C@H](Cc2c[nH]c3ccccc23)NC(=O)OC(C)(C)C)o1,i,3.4
COc1ccc(-c2nnc(SCC(=O)Nc3cc(C)on3)n2C)cc1OC,i,-0.4
COC(=O)Cn1cnc2sc(C)c(S(=O)(=O)N3CCC(C)CC3)c2c1=O,i,-0.1
CC1=C(C(=O)NCc2ccccn2)C2(CCC(C)CC2)OC1=O (configuration not stated),i,0.1
CC(NS(C)(=O)=O)C(c1cccs1)N1CCN(c2ccccc2F)CC1 (configuration not stated),.,-2.0
CC(C)c1ccc(CNc2ccc(N3CCOCC3)cc2)cc1,i,-8.5
O=C(NCCCNC(=O)c1ccccn1)c1ccccn1,i,0.0
O=C(NC1CCN(Cc2ccccc2)CC1)C1CCN(S(=O)(=O)c2cccc3cccnc23)CC1,i,1.4
COc1cccc(-c2nc(CSCC(=O)N3CCc4ccccc43)c(C)o2)c1,i,0.4
Cc1cc(C)n2nc(SCC(=O)N(C)c3ccccc3)nc2n1,i,-0.8
COc1ccc(-c2nc(C(N)=O)c3[nH]c(=O)n(-c4cccc(Cl)c4)c3n2)cc1OC,i,5.4
COc1ccc2[nH]c3c(=O)n(CCCCC(=O)N4CCCC4)c(=S)[nH]c3c2c1,.,-2.6

# Among those listed so far, 6 have fluorine:
SMILES,VCAM-1 up,Proteasome disasm
O=C(Nc1cccc(C(F)(F)F)c1)c1cc(-c2cccs2)on1,.,-3.7
CCOC(=O)N1CCN(c2nc(-c3cccc(OC)c3)cc(C(F)(F)F)n2)CC1,.,0.3
COCC(C)NC(=O)CCS(=O)(=O)c1nc(-c2ccc(OC)cc2)cc(C(F)(F)F)n1 (configuration not stated),i,0.0
NS(=O)(=O)c1ccc(CCNc2cc(=O)n(Cc3ccc(F)cc3)c(=O)[nH]2)cc1,.,-1.0
Fc1ccc(-c2cc(C(F)(F)F)nc(NCC3CCCO3)n2)cc1 (configuration not stated),.,0.5
CC(NS(C)(=O)=O)C(c1cccs1)N1CCN(c2ccccc2F)CC1 (configuration not stated),.,-2.0

# Continued.
SMILES,VCAM-1 up,Proteasome disasm
O=C(NCCN1CCOCC1)c1cc(-c2ccc(Br)cc2)on1,.,0.2
O=C(CN1CCN(Cc2ccccc2)CC1)N1CCCc2c1c(=O)oc1ccc(O)cc21,.,-0.9
CCOc1ccccc1C1CC(c2ccc(F)cc2)Nc2nc(N)nn21 (configuration not stated),.,-1.4
Cc1ccc2cc3cc(C(=O)NCc4ccco4)oc3nc2c1,.,0.2
Cn1c(=O)cc(SCC(=O)NCCCN2CCOCC2)c2ccccc21,.,0.7
COc1ccc(N2CC(O)=C(c3nc4ccccc4s3)C2=N)c(OC)c1,.,16
CC(=O)C1=C(C)NC(SCSc2ccccc2)=C(C#N)C1c1cccnc1 (configuration not stated),i,1.1
CSc1nc2c(ccc3ccccc32)o1,i,-0.4
CCOc1ccc(-c2cc(CCCC(=O)N3CCN(c4ccc(OC)cc4)CC3)no2)cc1,i,-0.8
CCOC(=O)CN1CC23C=CC(O2)C(C(=O)NCc2ccccc2OC)C3C1=O (configuration not stated),.,-0.2
CC(O)Cc1nsc(NC(=O)c2cccs2)n1 (configuration not stated),.,0.6
CCN(CC)S(=O)(=O)c1ccc(Nc2nc3ccccc3n3nnnc23)cc1,.,6.2
O=S(=O)(NCC1CCCO1)c1ccc(S(=O)(=O)N2CCc3ccccc3C2)cc1 (configuration not stated),i,-1.2
Cc1ccc(-c2nc(C3CCN(S(C)(=O)=O)CC3)no2)cc1,.,-0.5
O=c1c2cc3c(cc2[nH]c(=S)n1CCN1CCOCC1)OCO3,.,0.7
O=C(Nc1ccncc1)c1cccc(F)c1,i,-1.0
CCCCOc1ccc(S(=O)(=O)NCc2csc(C)n2)cc1,.,-0.6
Cc1ccc(CN2C(=O)CSc3ccc(C(=O)NCCN4CCOCC4)cc32)cc1,.,-0.8
Cc1ccccc1C(=O)c1cccn1CC(=O)NCC1CCCO1 (configuration not stated),.,0.6
CCOc1ccc2nc(NC(=O)C3CCN(S(=O)(=O)c4cnc[nH]4)CC3)sc2c1,.,-0.2
COc1ccc(NC(=O)CC(NCCc2ccccc2)C(=O)O)c(OC)c1 (configuration not stated),.,2.2
COc1ccc(Br)cc1/C=c1\sc2nc(-c3ccco3)nn2c1=O,.,19
CCOC(=O)N1CCC(NC(=O)CCc2c(C)nc3nc(C)nn3c2C)CC1,.,-0.6
COc1cc(C)nc(SCC(N)=O)n1,.,-0.8
CC(C)n1c(CNC(=O)c2ccccc2)nc2ccccc21,.,0.1
CCOC(=O)C1CCN(c2c(NCCN3CCN(c4ccccc4)CC3)c(=O)c2=O)CC1,i,0.6
CCCCNC(=O)c1ccc2c(c1)N(CC)C(=O)c1ccccc1S2(=O)=O,.,-1.0
CCOc1ccc(C(=O)Nc2ccc(Cl)cn2)cc1Cl,.,-0.7
COc1ccc(CC(=O)N2CCOCC2)cc1OC,i,0.0
CCNCCNC(=O)c1c(O)c2ccccc2n(CC)c1=O,i,-0.1
CCCc1c(O)nc(SCC(=O)NCCc2ccc(OC)c(OC)c2)[nH]c1=O,i,0.2
COc1ccc(C2=CC(=O)OC3(CCCCC3)O2)cc1,i,-1.6
O=C(CN1CCN(Cc2ccc3c(c2)OCO3)CC1)N1CCc2[nH]c3ccc(F)cc3c2C1,i,11
CC(C)(C)OC(=O)N1CCCC1C(=O)N1CCc2ccccc21 (configuration not stated),i,1.4
Cc1ccc(C2N(c3cccc(Cl)c3)C(=O)C3CCCN32)o1 (configuration not stated),.,3.4
CC(C)Cc1cc(C(=O)N2CCN(c3ccc(F)cc3)CC2)no1,.,-0.1
CCOC(=O)Cn1cnc2c(nnn2-c2ccc(OC)cc2)c1=O,.,0.1
COc1ccc(CNC(=O)C2C3C=CC4(CN(Cc5cccnc5)C(=O)C24)O3)cc1 (configuration not stated),.,0.5
CCOC(=O)CN1C(=O)C(=O)c2cccc(C)c21,i,0.3
Cc1ccc(NC(=O)CCc2c(C)nc3ncnn3c2C)cc1,.,0.3
CCCCNC(=O)C1C2C=CC3(CN(Cc4ccccc4Cl)C(=O)C13)O2 (configuration not stated),.,-0.3
CC1(C)S[C@@H]2[C@H](NC(=O)Cc3ccccc3)C(=O)N2[C@H]1C(=O)O,i,0.2
O=c1cc(-c2ccccc2Cl)c2c([nH]1)CCC2,.,1.4
CCCCc1oc2ccccc2c1C(=O)c1cc(I)c(OCCN(CC)CC)c(I)c1,i,0.3
COc1cccc(-c2nnc(NC(=O)c3ccc(S(=O)(=O)N4CC(C)OC(C)C4)cc3)o2)c1 (configuration not stated),.,-1.0
CN(Cc1ccco1)C(=O)C1CCC(=O)N1Cc1ccc(F)cc1 (configuration not stated),.,-0.5
CCc1cccc(NC(=O)CCc2nc(-c3cccs3)no2)c1,i,-0.1
CCOC(=O)N1CCN(C(=O)C2c3cc(OC)c(OC)cc3C(=O)N3CCc4ccccc4C23)CC1 (configuration not stated),i,-0.6
COc1cc(C2=NOC(C(=O)N3CCN(c4ccc(F)cc4)CC3)C2)cc(OC)c1OC (configuration not stated),.,2.1
c1ccc(-c2noc(C3CCCCC3)n2)nc1,i,0.8
COc1cccc(C2CC(c3ccccc3Cl)n3ncnc3N2)c1 (configuration not stated),.,0.1
CCc1ccc(C=NC23CN4CN(CN(C4)C2)C3)s1,i,0.6
Cc1cc(C)cc(NC(=O)CSc2nnc(Cn3c(=O)sc4ccccc43)n2C)c1,.,-2.7
COC(=O)c1cc(=O)nc2sc(-c3cccs3)nn12,i,-0.1
COc1cccc(-c2nn(C)c3sc(C(=O)NCc4ccccn4)cc23)c1,.,3.5
CC(C)C(NS(=O)(=O)c1cccs1)C(=O)NCCN1CCN(c2ccccc2)CC1 (configuration not stated),.,2.7
